Assay outcomes as filed in PubChem BioAssay.
PINK1 modulator: changes PINK1 expression; PINK1 immunofluorescence, high-content cytometry, 24 h; Potency, µM (top dose mostly 76.6 µM), for inactives: at the top dose activation (PINK1 increase), usual class: activators; 0.2% of 410,000 active; active = well fitted activation curve with a large enough effect; inconclusive = small, poorly fitted or top-dose-only effect; inactive = flat fitted curve, though single readings scatter; cell line not stated here;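 further: potency means the concentration at half of the fitted maximal effect; % of control where 0% means no effect; nearly all actives have a fitted effect of over 65% in size; a mitochondrial uncoupler was the plate control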
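Compound titrations (5 concentrations, 24 h) on a stable cell line; DMSO and CCCP controls. Endpoint: fixed-cell PINK1 immunofluorescence with mitochondrial, cell and nuclear markers, scanned by microplate cytometer.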
gsp antagonist: gsp mutant antagonism; 0.4% of 340,000 active; Potency, µM (doses to about 76.9 µM), without a hit: at the highest dose activity change, negative = inhibition, hits mostly inhibitors; gsp-mutant cells, cAMP HTRF, 30 min; control for the full effect not named in the record; AID 624288; active = falling curve of any shape with a large fitted effect; inconclusive = falling curve, mostly with a smaller effect; inactive = flat or rising curve; cell line not stated here;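 further: intracellular cAMP measured with PDE inhibitor Ro 20-1724 present during compound exposure; potency means the concentration at half of the fitted maximal effect; on the % scale 0 is the no-effect control and ±100 the full control effect; nearly all actives have a fitted effect of over 65% in size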
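Measurement of cellular cAMP by homogeneous time-resolved fluorescence following a 30 min compound exposure at 37C. The PDE inhibitor […] was present throughout; the assay buffer was DPBS with 0.05% BSA and 0.005% Tween 20.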
ClpP mod: qHTS Assay for Activators of ClpP. purified B. subtilis ClpP, FRET peptide cleavage, 20 min. ATP-dependent Clp protease proteolytic subunit (Bacillus subtilis (strain 168)), P80244. Potency, µM (top dose mostly 57.5 µM), for the others: at the highest dose activity change, negative = active. 1.9% of 340,000 active; active = well fitted falling curve with a large enough effect; inconclusive = small, poorly fitted or top-dose-only effect; inactive = no such curve, though single readings can be large or run the other way; further: potency means the concentration at half of the fitted maximal effect; the source files actives as falling curves though it sought activators and does not explain the sign; nearly all actives have a fitted effect of over 65% in size; many hits overshoot -100%
Target sequence (P80244 whole entry, looked up): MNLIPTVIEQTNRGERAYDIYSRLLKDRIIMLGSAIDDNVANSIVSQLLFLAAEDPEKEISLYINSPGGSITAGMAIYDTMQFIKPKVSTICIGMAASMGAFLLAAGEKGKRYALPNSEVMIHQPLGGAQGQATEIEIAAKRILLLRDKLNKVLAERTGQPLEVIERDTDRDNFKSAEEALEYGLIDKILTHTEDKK
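ClpP 10 microg/mL final, pH 8 Tris/KCl buffer with BSA, glycerol, Tween-20; compound pinned in; FRET-FV substrate; RT 20 min; Ex320/Em430; ΔFRET vs ADEP 5.8 microM, DMSO, no enzyme.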
Sfp PPTase inh: inhibitors of Bacillus subtilis Sfp phosphopantetheinyl transferase; Potency, µM, for inactives: max response, negative = inhibition, actives largely listed as inhibitors; Q9F4F7; Biochemical Sfp PPTase activity, qHTS; 3.5% of 310,000 active; active means well fitted inhibition curve with a large enough effect; inconclusive means small, poorly fitted or top-dose-only effect, or another doubt; inactive means no such curve, though single readings can be large or run the other way;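 further: the enzyme is Sfp with the accession as filed and its product quenches rhodamine fluorescence; potency means the concentration at half of the fitted maximal effect; 0% = enzyme reaction without inhibitor and -100% = no enzyme wells; top concentration of the series not given in the record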
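Reaction rates are the 30-min fluorescence difference (ex 525, em 598 nm) in wells containing 15 nM Sfp, 5 uM rhodamine-CoA and 12.5 uM BHQ-2-YbbR at pH 7.6 with 10 mM MgCl2.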
gsp ag: gsp mutant agonism; AID 624287; 0.13% of 340,000 active; Potency, µM (series often up to 76.9 µM), for the others: top-dose activation (cAMP increase), most hits filed as activators; gsp mutant cells, cAMP HTRF, 30 min; control for the full effect not named in the record; active = well fitted activation curve with a large enough effect; inconclusive = small, poorly fitted or top-dose-only effect, or another doubt; inactive = no such curve, though single readings can be large or run the other way; cell line not stated here;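 further: phosphodiesterase inhibitor Ro 20-1724 added with compounds to block cAMP breakdown; potency means the concentration at half of the fitted maximal effect; nearly all actives have a fitted effect of over 60% in size; about a fifth of the inactives were tested at one dose only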
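Cells in DMEM/10% FBS with G418 were pretreated with compounds in DMSO plus […] (300 uM stock) for 30 min at 37C. cAMP was measured by HTRF (cAMP-d2 plus anti-cAMP antibody-K) after 30 min at room temperature.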
D2 ag: agonists of human D2 dopamine receptor (beta-arrestin); DiscoveRx PathHunter D2 beta-arrestin, luminescence, 90 min; 100% = 57 uM dopamine signal; activation, % (concentration not given with the values); P14416; 0.084% of 360,000 active; in the data active = activation above about 40%; inconclusive = about 15% to 40%; inactive = below about 15%; further: compound concentration not given in the record; the text of the record calls up to 30% inactive
Target sequence (P14416 whole entry, looked up): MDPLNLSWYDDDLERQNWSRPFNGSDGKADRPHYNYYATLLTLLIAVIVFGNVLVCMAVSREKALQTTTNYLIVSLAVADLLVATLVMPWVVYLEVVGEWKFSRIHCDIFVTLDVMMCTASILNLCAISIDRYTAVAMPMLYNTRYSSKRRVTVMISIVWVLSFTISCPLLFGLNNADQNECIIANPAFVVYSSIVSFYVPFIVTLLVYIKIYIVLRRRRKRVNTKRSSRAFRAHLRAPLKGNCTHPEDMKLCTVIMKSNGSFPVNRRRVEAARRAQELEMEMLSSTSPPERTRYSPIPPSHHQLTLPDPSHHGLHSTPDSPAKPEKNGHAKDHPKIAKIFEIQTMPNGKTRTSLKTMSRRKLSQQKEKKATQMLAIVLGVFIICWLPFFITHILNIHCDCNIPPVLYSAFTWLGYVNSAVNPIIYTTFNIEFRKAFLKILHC
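Agonist mode: compounds alone added to overnight-plated D2 PathHunter cells for 90 min at 37 C, with 57 uM final dopamine (EC100) defining full response. Beta-arrestin recruitment detected by chemiluminescent reagent, read after 1 h at ambient temperature.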
Menin MLL FP FL: displaces fluorescein MLL peptide from human menin. 290,000 tested, under 10 active. FP activity change, % at 61.4 µM. Fluorescence polarization, fluorescein-MLL peptide displacement from menin. AID 1766; inconclusive = falling polarisation curve, or a change in total fluorescence; inactive = total fluorescence flat and polarisation flat or rising; no compound was filed as active; the % refers to the polarisation; negative = inhibition;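 further: % of control where 0% means no effect; inhibitors lower the polarisation; unlabelled MLL peptide was the positive control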
Numbers without * were called inactive; ? = inconclusive; . = not tested or not shown; & = joins results of further samples; [ ] = dose if it differs, or a comment.

1: C[C@H](CO)N1C[C@H](C)[C@@H](CN(C)C(=O)NC2CCCCC2)Oc2c(NS(=O)(=O)c3ccccc3)cccc2C1=O
2: Cc1cc(C(=O)CN2C(=O)NC3(CCCc4sccc43)C2=O)c(C)n1-c1ccc(Cl)cc1 (centres undefined)
3: C=CCOc1cccc(/C=N/NC(=O)CN2CCCCC2)c1
4: O=C(CN1CCN(c2ccccn2)CC1)Nc1cccc(S(=O)(=O)N2CCCC2)c1
5: COC(=O)/C=C1\SC(=Nc2ccccc2)NC1=O

entry no.	1	2	3	4	5
PINK1 modulator	0.7%	4.8%	2.0%	-2.5%	2.4%
gsp antagonist	7%	-1%	6%	-8%	-5%
ClpP mod	-0.4%	.	-8.1%	-11%	-14%
Sfp PPTase inh	.	3%	15%	1%	22%
gsp ag	-42%[inhibitor]	-20%	-67%[inhibitor]	23%	-39%[inhibitor]
D2 ag	1.5	-0.5	-6.0	2.5	-2.5
Menin MLL FP FL	.	4.3	-0.2	1.9	5.5

6: CC(C)[C@H](NC(=O)c1ccc(F)cc1)C(=O)OCC(=O)NC(=O)c1cccn1C
7: CC1CCCC(C)N1CCCNC(=O)c1ccc2nc(N3CCOCC3)sc2c1 (centres undefined)
8: CCOC(=O)c1cnc2ccc(OC)cc2c1NCc1ccccc1
9: Cc1cc2c(n1-c1ccc(C(N)=O)cc1)CC(C)(C)CC2=O
10: CNC(=O)OCc1ncn(-c2ccccc2)c1COC(=O)NC

entry no.	6	7	8	9	10
PINK1 modulator	-1.3%	1.2%	7.9%	-1.0%	-1.1%
gsp antagonist	5%	-9%	-28%	-3%	.
ClpP mod	-1.0%	?	-18%	-0.8%	0.5%
Sfp PPTase inh	?	-2%	-8%	4%	.
gsp ag	24%	-15%	?	6%	.
D2 ag	-2.0	-7.2	-5.1	-3.2	-2.7
Menin MLL FP FL	1.7	0.3	2.5	3.9	.

11: COC(=O)c1ccc(C23CC4(C2)[C@H](CN(Cc2ccc(-c5ccccc5)cc2)[C@@H]4c2ccccc2)C3c2ccc(Cl)nc2)cc1 (some centres undefined)
12: CCOC(=O)C1(Cc2cccc(Cl)c2)CCCN(C(=O)c2cn[nH]c2)C1 (centres undefined)
13: Nc1c(N(Cc2ccco2)C(=O)COc2ccccc2Cl)c(=O)[nH]c(=O)n1Cc1ccccc1
14: CC(=O)N/C(=C\c1ccc(Br)s1)C(=O)O
15: Cc1nc(Cl)sc1C(=O)Nc1cccc(C(F)(F)F)c1

entry no.	11	12	13	14	15
PINK1 modulator	3.7%	-1.8%	3.3%	-0.3%	1.4%
gsp antagonist	-1%	-12%	0%	-7%	-4%
ClpP mod	-5.0%	-2.9%	1.8%	.	.
Sfp PPTase inh	15%&11%	4%	.	10%	.
gsp ag	.	-23%	-21%	-1%	12%
D2 ag	-1.7	-7.0	-2.5	-0.5	-3.8
Menin MLL FP FL	10&4.9	-2.6	.	-1.0	.

16: O=C(Nc1cccc(Cl)c1)OCc1cn(-c2ccc(Cl)cc2)nn1
17: CCC(=O)Nc1nnc(S(=O)(=O)N2CCCC2)s1
18: Cc1ccnc(N2C3CCC2CC(O)(c2ccccc2)C3)n1 (centres undefined)
19: O=C1CN(C(=O)COC(=O)c2ccc(N3CCCCCC3)c([N+](=O)[O-])c2)c2ccccc2N1
20: CCCCSc1cc(=O)n(-c2ccccc2)nc1C(=O)OCC

entry no.	16	17	18	19	20
PINK1 modulator	0.9%	-0.3%	1.1%	-0.4%	6.2%[38.3 µM]
gsp antagonist	9%	1%	3%	?	12%
ClpP mod	-2.4%	-12%	3.8%	.	0.3%
Sfp PPTase inh	9%	6%	17%	1%	6%
gsp ag	23%	2%	7%	11%[15.4 µM]	-4%
D2 ag	-1.6	-3.4	-4.4	-0.3	-1.0
Menin MLL FP FL	6.4	5.7	0.2	2.1	2.5

21: CCCC(=O)NC(=S)Nc1ccc(CN2CCOCC2)cc1
22: COc1ccc(C2C(C(C)=O)=C(O)C(=O)N2c2ccc(Br)cc2)cc1 (centres undefined)
23: COc1ccccc1-c1cc(C(F)(F)F)nc(S(=O)(=O)CCCC(=O)Nc2cccnc2Cl)n1
24: O=C(NCCS(=O)(=O)N1CCN(c2ccccc2F)CC1)c1ccc2c(c1)OCO2
25: O=C(NCc1ccc2c(c1)OCO2)c1cc2ccccc2oc1=O

entry no.	21	22	23	24	25
PINK1 modulator	2.8%	-0.5%	-2.2%	2.0%	11%
gsp antagonist	7%	-1%	13%	-4%	-2%
ClpP mod	-0.1%	-2.6%	.	-9.7%	-1.5%
Sfp PPTase inh	5%	2%	2%	.	4%
gsp ag	7%	?	0%[15.4 µM]	-10%	-9%
D2 ag	-6.4	0.3	-1.2	-2.4	-0.7
Menin MLL FP FL	-0.8	3.1	2.2	.	-4.0

4 records drawn at random from the list so far:
21: CCCC(=O)NC(=S)Nc1ccc(CN2CCOCC2)cc1
23: COc1ccccc1-c1cc(C(F)(F)F)nc(S(=O)(=O)CCCC(=O)Nc2cccnc2Cl)n1
22: COc1ccc(C2C(C(C)=O)=C(O)C(=O)N2c2ccc(Br)cc2)cc1 (centres undefined)
24: O=C(NCCS(=O)(=O)N1CCN(c2ccccc2F)CC1)c1ccc2c(c1)OCO2

entry no.	21	23	22	24
PINK1 modulator	2.8%	-2.2%	-0.5%	2.0%
gsp antagonist	7%	13%	-1%	-4%
ClpP mod	-0.1%	.	-2.6%	-9.7%
Sfp PPTase inh	5%	2%	2%	.
gsp ag	7%	0%[15.4 µM]	?	-10%
D2 ag	-6.4	-1.2	0.3	-2.4
Menin MLL FP FL	-0.8	2.2	3.1	.

The list continues:
26: Cc1ccccc1OCC(=O)N/N=C/c1cccn1C
27: CN(c1ccc(F)cc1)S(=O)(=O)c1ccc(Cl)c(C(=O)NC2(C)CCS(=O)(=O)C2)c1 (centres undefined)
28: CN1CCN(c2ccc(NC(=O)CSc3nnnn3-c3ccccc3F)cc2)CC1
29: Cc1nn(C)c2ncc(C(=O)c3cc(F)ccc3O)cc12
30: COCCn1nnnc1SCC(=O)N1CCCCC1

entry no.	26	27	28	29	30
PINK1 modulator	2.3%	3.0%	0.6%	3.6%	-0.7%
gsp antagonist	-2%	-2%	7%	-17%	17%
ClpP mod	-1.3%	-0.2%	-1.2%	0.9%	1.0%
Sfp PPTase inh	14%	.	0%	2%	15%
gsp ag	-32%	7%	-2%	-31%[inhibitor]	0%
D2 ag	-2.5	-3.0	1.3	0.3	-3.2
Menin MLL FP FL	-7.1	.	-0.4	-1.0	3.0

31: Clc1ccc(CNC2CCCC2)c(Cl)c1
32: Cc1ccccc1CNC(=O)c1ccc(Cl)c([N+](=O)[O-])c1
33: COc1ccc(NC(=O)CSc2nnc3ccc(-c4ccncc4)nn23)cc1OC
34: CN(C)CCN1C(=O)c2oc3ccc(Cl)cc3c(=O)c2C1c1cccc(Br)c1 (centres undefined)
35: COc1cc2ccc(C(C)=NNC(N)=S)cc2cc1OC

entry no.	31	32	33	34	35
PINK1 modulator	.	3.4%	-1.0%	0.2%	-1.5%
gsp antagonist	4%	-36%	-5%	0%	.
ClpP mod	0.5%	-1.2%	-2.2%	-4.4%	-13%
Sfp PPTase inh	6%	-15%	12%	13%	.
gsp ag	0%	-45%[inhibitor]	19%	27%	45%
D2 ag	-0.4	3.2	-4.5	-6.3	-4.0
Menin MLL FP FL	-0.6	-3.1	5.9	-1.2	.

36: Cc1nc(CN2CCCCC2)cc(=O)[nH]1
37: COc1cc(C)ccc1OCCOc1c(C)cccc1Cl
38: COc1ccc(S(=O)(=O)N2CCCCC2)cc1NC(=O)C1COc2ccccc2O1 (centres undefined)
39: COc1ccccc1CNC(=O)C(=O)NCC1OCCN1C(=O)c1cccs1 (centres undefined)
40: COc1ccc(Cl)cc1NC(=O)CN(C)C(C)C(=O)NCC1CCCCC1 (centres undefined)

entry no.	36	37	38	39	40
PINK1 modulator	1.9%	?	1.4%	1.1%	6.4%[38.3 µM]
gsp antagonist	-8%	-14%	1%	8%	1%
ClpP mod	.	1.0%	-1.5%	-3.2%	-0.5%
Sfp PPTase inh	-1%	-10%	.	3%	11%
gsp ag	?	-14%	-10%[15.4 µM]	17%[15.4 µM]	-22%
D2 ag	-2.5	-3.5	-3.8	0.0	-4.1
Menin MLL FP FL	0.2	-1.2	.	3.9	4.0

41: CCOc1ccccc1NC(=O)CN1CCN(C(=O)C2CCCO2)CC1 (centres undefined)
42: Cc1ccc(-n2c(SCC(=O)NNC(=S)Nc3ccccc3)nc3ccccc3c2=O)cc1
43: Cc1ccc(Cl)cc1N1CCN(C(=O)CSc2ccsc2[N+](=O)[O-])CC1
44: C/C(=N\NC(=O)C(N)=O)c1ccc(O)cc1O
45: NC(=O)c1cc([N+](=O)[O-])ccc1NCc1cccc([N+](=O)[O-])c1
46: O=C(COC(=O)Cc1ccc(S(=O)(=O)N2CCOCC2)s1)Nc1ccc([N+](=O)[O-])cc1
47: COc1cc(C)ccc1OCc1cc(C(=O)N2C[C@H]3CC[C@H]2C3)no1
48: COc1ccccc1N1CCN(C(=O)CCC(=O)N2CCN(c3ccc(F)cc3)CC2)CC1

entry no.	41	42	43	44	45	46	47	48
PINK1 modulator	4.1%	1.8%	9.7%	0.8%	0.7%	0.4%	-0.9%	1.1%
gsp antagonist	1%	?	-9%	-1%	-1%	-13%	-1%	-14%
ClpP mod	.	0.3%	28µM*	.	-2.4%	-0.1%	-0.5%	0.7%
Sfp PPTase inh	14%	11%	-13%	-18%	.	.	1%	14%
gsp ag	26%[15.4 µM]	-5%	-54%[inhibitor]	-10%	23%	20%	?	-39%[inhibitor]
D2 ag	-2.0	-9.0	-3.0	4.5	-3.3	0.4	2.1	6.0
Menin MLL FP FL	.	-1.5	-1.4	12	.	.	.	-1.2
